TRPML1 agonist = activates the human TRPML1 channel; TRPML1-expressing cells, Ca2+ dye fluorescence, FDSS; host cell line not named in the record; reference of the full effect not given here; activation, % (concentration not given with the values); hit rate 0.12% among 410,000; AID 624414; in the data active = activation above about 50%; inconclusive = about 30% to 50%; inactive = below about 30%; also: 0% is about no effect; the text of the record puts the active cut at 80%
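Cells: TRPML1-DL, 1X Tet inducer, ~16 h at 37 degrees C/5% CO2. Dye: ABD Ca8 no-wash + quencher, 45-90 min RT. Read: 10 s baseline, compound add, 110 s agonist phase; 54-4 EC80 (4uM final), 110 s antagonist phase.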
TRPML1 inh = human mucolipin-1 channel inhibition | AID 624415 | activity change, negative = inhibition, % (no concentration beside the values) | TRPML1-inducible cells, Ca2+ dye fluorescence, FDSS; hits give low values; inhibition of EC80 agonist-evoked calcium signal | hit rate 0.02% among 390,000; in the data active means activity change below about -50%; inconclusive means about -30% to -50%; inactive means above about -30%;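 also: stimulus is agonist 54-4 at its EC80 concentration; % is scaled to controls: 0 for no effect and ±100 for the full control effect; compound concentration not given in the record; the text of the record puts the active cut at -80%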
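Tet-induced TRPML1-DL cells loaded with Ca8 no-wash calcium dye were read kinetically on FDSS. Compound addition was followed by EC80 agonist 54-4 (4 uM final); inhibition was read over 110 s.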
D2 agonist = agonists of human D2 dopamine receptor (beta-arrestin); AID 624465; P14416; DiscoveRx PathHunter D2 beta-arrestin, luminescence, 90 min; 100% = 57 uM dopamine signal; activation, % (test concentration not listed); hit rate 0.084% among 360,000; in the data active = activation above about 40%; inconclusive = about 15% to 40%; inactive = below about 15%; also: compound concentration not given in the record; the text of the record calls up to 30% inactive
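DiscoveRx PathHunter D2 beta-arrestin cells (2,100/well) attached overnight, then compound-stimulated 90 min at 37 C in HBSS/10 mM HEPES/0.1% Tween-20 buffer; beta-galactosidase complementation read by luminescence after 1 h at ambient temperature. Dopamine 57 uM final (EC100) as control.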
PINK1 modulator = changes PINK1 expression. PINK1 immunofluorescence, high-content cytometry, 24 h. Potency, µM (highest dose often 76.6 µM), without a hit: at the top dose activation (PINK1 increase), actives largely listed as activators. hit rate 0.2% among 410,000; active = well fitted activation curve with a large enough effect; inconclusive = small, poorly fitted or top-dose-only effect; inactive = flat fitted curve, though single readings scatter; cell line not stated here;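 also: potency is read from the fitted curve at half-maximal effect; % of control where 0% means no effect; nearly all actives have a fitted effect of over 65% in size; a mitochondrial uncoupler was the plate control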
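Measures PINK1 amount and localization on or inside mitochondria by immunofluorescence. Stable cells get compounds at 5 concentrations for 24 hours before fixation and staining; CCCP controls included.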
Six1-Eya2 inh = inhibitors of human Six1/Eya2 interaction; AlphaScreen GST-Six1/His-Eya2 binding, biochemical; hits give low values; control for the full effect not named in the record; Q15475+O00167; hit rate 0.56% among 360,000; activity change, % (concentration not given with the values); AID 651725; in the data active = activity change below about -65%; inconclusive = about -30% to -65%; inactive = above about -30%; also: % is scaled to controls: 0 for no effect and ±100 for the full control effect
Target sequence (O00167 whole entry, looked up): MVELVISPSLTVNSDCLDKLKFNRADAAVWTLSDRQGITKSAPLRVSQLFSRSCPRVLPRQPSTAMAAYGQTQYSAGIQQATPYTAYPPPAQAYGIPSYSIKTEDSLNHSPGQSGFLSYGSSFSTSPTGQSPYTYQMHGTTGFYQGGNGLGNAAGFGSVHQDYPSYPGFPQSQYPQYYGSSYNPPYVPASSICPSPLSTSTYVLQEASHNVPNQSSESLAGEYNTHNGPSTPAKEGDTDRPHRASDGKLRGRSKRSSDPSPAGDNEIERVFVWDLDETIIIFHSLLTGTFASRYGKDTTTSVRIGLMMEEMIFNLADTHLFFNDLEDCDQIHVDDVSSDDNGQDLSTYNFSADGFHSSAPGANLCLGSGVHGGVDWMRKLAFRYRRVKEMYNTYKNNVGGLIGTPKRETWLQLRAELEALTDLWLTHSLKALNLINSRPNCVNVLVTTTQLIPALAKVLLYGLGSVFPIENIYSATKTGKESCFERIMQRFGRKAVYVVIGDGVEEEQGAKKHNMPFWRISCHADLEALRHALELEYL
Target sequence (Q15475 whole entry, looked up): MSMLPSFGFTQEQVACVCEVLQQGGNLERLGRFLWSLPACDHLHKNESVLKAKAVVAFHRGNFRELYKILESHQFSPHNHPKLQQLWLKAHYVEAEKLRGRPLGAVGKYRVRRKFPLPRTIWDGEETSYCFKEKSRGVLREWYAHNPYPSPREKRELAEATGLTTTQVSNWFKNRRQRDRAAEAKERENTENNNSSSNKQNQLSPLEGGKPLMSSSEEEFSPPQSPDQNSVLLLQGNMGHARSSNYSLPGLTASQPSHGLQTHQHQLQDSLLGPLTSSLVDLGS
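Homogeneous AlphaScreen proximity assay pairing GST-Six1 with His-tagged Eya2 (added as 5X mix: 250 nM and 500 nM) in 50 mM Tris pH 8.0, 300 mM NaCl, 1 mM TCEP. Glutathione donor and nickel acceptor beads; 1 h, 37 °C, dark.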
D2 potentiator = positive allosteric modulators of human D2 dopamine receptor | potentiation, % (test concentration not listed) | P14416 | hit rate 0.23% among 360,000 | DiscoveRx D2 beta-arrestin cells, luminescence, 90 min; 100% = 57 uM dopamine signal; active = potentiation of 50% or more; inconclusive = 30% to 50%; inactive = 30% or less;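 also: compound concentration not given in the record; tested on top of an EC20 dose of dopamine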
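D2 cells co-treated with compound plus 50 nM dopamine (EC20) for 90 min at 37 deg C to detect potentiation. Beta-arrestin recruitment was read as enzyme-fragment luminescence after 1 h at ambient temperature. Full response was set by 57 uM dopamine.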
* = called active by the depositor; / = no result given; [ ] = dose if it differs, or a comment.

Structure,TRPML1 agonist,TRPML1 inh,D2 agonist,Six1-Eya2 inh,D2 potentiator,PINK1 modulator
COc1cccc(-n2c(C)nn(C)c2=O)c1,-0.8,-7.3,-2.6,-0.5,-8.4,6.5%[38.3 µM]
COc1ccc(/C=N\NC(=O)CC(=O)Nc2cccc(Cl)c2)cc1OC,-0.1,-1.7,-3.0,5.9,-15.3,3.8%
CCCN1CCN(C(=O)CS(=O)(=O)Cc2nc(-c3cccc(OC)c3)oc2C)CC1,-0.3,-5.8,-2.6,-10.1,-9.2,0.9%
Cc1ccc(C(C)C)c(OCc2nnc(SCC(=O)Nc3ncc(C)s3)n2C)c1,0.5,-12.7,-1.2,3.4,-8.4,16.9%[38.3 µM]
COC(=O)c1ccc(CNC(=O)c2cc(S(=O)(=O)NCc3ccccc3)ccc2C)cc1,0.0,-5.6,-1.7,5.1,-18.2,5.3%
Cc1ccc(C(C(=O)NC2CCCC2)N(Cc2ccccc2)C(=O)c2csnn2)o1 (stereo not given),3.7,-9.4,3.5,-1.1,1.1,-0.6%
S=c1[nH]nc(-c2ccco2)n1/N=C/c1ccccc1Cl,0.9,7.2,2.5,2.5,8.8,3.5%
CC(C(=O)Nc1cc(C(F)(F)F)ccc1N1CCOCC1)N1C(=O)C2CCCCC2C1=O (stereo not given),0.4,3.4,-1.1,-0.4,0.4,0.2%
Cc1cc(C(=O)OCC(=O)N2c3ccccc3CC2C)c(C)o1 (stereo not given),-0.4,-0.3,-1.7,-9.3,1.3,-0.1%
COc1ccc(Cc2noc(CN(C)CC(O)c3ccccc3)n2)cc1OC (stereo not given),-0.3,2.0,0.3,5.9,5.3,-0.2%
Cc1ccc(C2=NN(C(=O)CCl)C(c3ccco3)C2)o1 (stereo not given),0.4,8.0,-0.3,2.2,-3.9,0.4%
O=C(CN1C(=O)/C(=C/c2ccco2)SC1=S)Nc1ccc(C(=O)O)c(O)c1,1.5,18.3,4.0,-65.1*,-8.2,-1.4%
O=[N+]([O-])c1ccc(Sc2nccn2Cc2ccccc2)cc1,1.0,40.4,0.5,-8.5,-17.7,3.3%[38.3 µM]
COc1ccc(C(C#N)N2CCC(c3ccccc3)=N2)cc1 (stereo not given),0.8,-11.0,-2.1,1.7,-4.8,3.3%
Cn1nnc2c(N3CCN(c4ccccc4Cl)CC3)ncnc21,-0.6,8.7,/,/,/,1.8%
COC(=O)c1ccc(S(=O)(=O)c2ccccc2)c(N)c1,-0.3,-25.1,1.6,17.6,13.6,2.4%
Cc1cc(C)nc(NCC(O)COc2ccccc2C)n1 (stereo not given),0.8,-0.4,0.6,0.9,-16.8,0.4%
O=C(CC1N=C2c3ccccc3N=C(SCc3cccc(F)c3)N2C1=O)NC1CCCCC1 (stereo not given),1.2,-5.2,/,/,/,3.0%
CCn1c(-c2ccc(N)cc2)nc2ccccc21,-0.4,-0.8,-1.1,-9.5,0.5,1.6%
CCOc1ccc(-c2cc(CCCC(=O)Nc3cccc(OC)c3)no2)cc1,3.5,60.5,-3.6,-0.3,2.1,7.0%
COc1ccc(CC(=O)Nc2ccccc2NC(=O)c2ccco2)cc1OC,-0.3,7.6,0.3,-2.6,-4.2,-0.8%
CCn1c(SCc2ccccc2C)nc(=O)c2c(C(=O)OC)cc(C3CC3)nc21,2.3,20.0,/,/,/,-0.4%
CC(Sc1nc(N)cc(=O)[nH]1)C(=O)Nc1cccc(Cl)c1 (stereo not given),1.6,0.0,1.6,1.9,-1.8,0.0%
COc1ccccc1NC(=O)CCCN1C(=O)C(c2ccccc2)Oc2cccnc21 (stereo not given),3.2,2.9,-3.8,-5.0,-2.9,0.2%
Cc1cc(C(=O)NN)n[nH]1,-0.3,0.4,-1.7,-0.6,-6.5,1.4%
Cc1ccc(S(=O)(=O)NN2C(=O)c3ccccc3NC2c2ccccc2O)cc1 (stereo not given),-0.3,-7.0,1.0,3.4,5.6,-0.5%
CCc1nc2ccc(C(=O)NCCN3CCNC3=O)cn2c1N(CC)Cc1cccc(Br)c1,-0.7,/,-4.8,2.7,-2.5,0.3%
O=C(Nc1ccc2c(c1)OCO2)c1cc2ncc(Br)cn2n1,-0.8,-10.3,1.3,-11.7,17.1,0.1%
Cc1ccc(S(=O)(=O)c2cc3c(=O)n4ccccc4nc3n(C)c2=N)cc1C,0.8,-2.3,-3.0,0.8,-3.1,0.7%
CCCN(CCC)c1nn2c(=O)c(C(=O)NCc3cccc(OC)c3)cnc2s1,0.9,13.4,/,/,/,0.7%
Cc1sc2nc(SCC(=O)NCCCO)n(-c3ccccc3)c(=O)c2c1C,0.3,-10.9,-3.9,2.8,-8.6,1.3%
CC(C)Sc1nc2ncnc(N)c2[nH]1,0.2,-8.0,-2.4,6.1,-8.6,0.0%
CSc1ccccc1N1CCN(C(=O)Nc2ccc3c(c2)NC(=O)CO3)CC1,1.0,5.8,10.6,-10.4,-28.2,2.1%
O=C(CN1CC(c2ccccc2)CC1=O)N/N=C/c1cc(Br)ccc1O (stereo not given),-0.6,8.6,-0.9,-84.3*,-11.9,0.6%
c1ccc(-n2ncc3c(N4CCCCC4)ncnc32)cc1,-0.6,17.0,-5.9,9.7,-11.2,2.3%
CCC(C)(C)NC(=O)C(c1ccccc1Cl)N(C(=O)CCC(=O)Nc1cc(C)on1)C(C)(C)C (stereo not given),-0.8,-1.3,-19.4,-1.4,-4.7,3.2%
CC(=O)/C(N=Nc1nc2c([nH]1)c(=O)n(C)c(=O)n2C)=C(\C)O,0.1,3.2,-0.4,17.5,5.8,2.0%
Cc1ccc(-n2ncc3c(=O)n(CC(=O)N4CCCc5ccccc54)cnc32)cc1C,-1.1,11.4,2.5,-7.2,13.4,7.4%
CS(=O)(=O)c1ccc2c(c1)sc1nc(=O)c(/C=C3/C=CC(=O)C(O)=C3)c(N)n12,0.3,-7.6,-1.7,-13.5,5.2,-1.3%
CCCCCOC(=O)Cc1c(C)nc(-c2ccccc2)[nH]c1=O,-0.2,-11.8,0.9,9.4,3.3,-1.5%
COC(=O)c1sccc1S(=O)(=O)N(CC(=O)Nc1ccccc1F)c1ccccc1,0.4,-14.1,/,/,/,0.8%
C=CCN(c1ccccc1)S(=O)(=O)c1cccc(C(=O)Nc2cc(C)ccn2)c1,2.0,-27.1,-5.8,-7.6,-37.8,-0.5%
COc1ccc(S(=O)(=O)N2CCOCC2)cc1NC(=O)CN1C(=O)NC(C)(C2CC2)C1=O (stereo not given),-0.3,23.4,-2.2,-0.2,-18.2,1.2%
CC1=C(CO)C(=O)OC([C@@H](C)C2CC[C@H]3C4C[C@H]5O[C@]56[C@@H](O)C=CC(=O)[C@]6(C)C4CC[C@]23C)C1 (stereo not given in full),/,/,-8.7,-2.6,-106.2,-0.1%
COc1ccc(OC)c(C(=O)CSc2nnc(-c3cccnc3)n2C)c1,-1.5,2.2,-1.2,-2.7,-25.8,8.9%
CCN(Cc1ccncc1)C(=O)c1cccc(S(=O)(=O)N2CCOCC2)c1,-0.1,-12.5,-2.6,-6.5,-8.3,-1.4%
CN(C)C1=NC[C@H](Cc2ccccc2)N1CC1CCCCCC1,0.5,28.2,0.7,2.7,-16.8,-0.7%
CCOc1ccc(C(=O)NCC(=O)OCc2cc(C(C)=O)ccc2OC)cc1,3.0,7.5,-0.7,-1.1,-11.3,-1.2%
CC(CCc1ccccc1)NC(=O)c1ccc(C(=O)NC(C)CCc2ccccc2)cc1 (stereo not given),1.3,-11.2,0.4,2.5,-14.0,0.6%
CC1CC(c2ccccc2)n2nc(NC(=O)c3ccco3)nc2N1 (stereo not given),-0.6,9.6,-0.6,1.0,5.6,2.1%
O=C(c1cc(-c2ccccc2)nc2ccccc12)N1CCN(C2CCS(=O)(=O)C2)CC1 (stereo not given),0.1,3.0,-3.1,8.4,-3.7,-0.4%
CN(CCCNC(=O)C1CCC(CNS(=O)(=O)c2ccccc2)CC1)Cc1ccccc1 (stereo not given),1.0,-7.8,1.8,1.9,-7.5,-1.5%
COc1ccc(S(=O)(=O)Nc2cccc3c2O[C@H](CN(C)S(=O)(=O)c2ccc(Cl)cc2)[C@H](C)CN([C@H](C)CO)C3=O)cc1,0.3,-3.8,-1.0,-8.7,0.6,1.4%
CCc1ccc(S(=O)(=O)N2CC(=O)Nc3ccccc32)cc1,-0.5,4.7,0.5,-1.9,-1.6,2.7%[38.3 µM]
O=C(c1ccncc1)c1ccc(N2CCN(C3CC(=O)N(Cc4cccs4)C3=O)CC2)cc1 (stereo not given),-0.7,-2.1,2.1,1.1,-5.7,0.3%
CCc1nn(CC(=O)N2CCC(C(N)=O)CC2)c(=O)c2cc3occc3n12,-0.7,3.8,-2.8,2.7,1.5,0.4%
CC1=C(C(=O)OCC2CCCCC2)C(c2cccc(F)c2F)CC(=O)N1 (stereo not given),-1.0,-2.3,/,/,/,6.8%
COc1ccc(N2C(=O)CC(SCCc3nc4ccccc4[nH]3)C2=O)cc1 (stereo not given),-0.3,6.7,-0.6,1.8,-10.7,0.9%[38.3 µM]
CCOc1ccc(S(=O)(=O)Nc2cccc(C(=O)NCC3(N4CCCCC4)CCCCC3)c2)cc1,-0.1,12.2,-5.1,-1.4,-22.4,1.5%
O=C(Cc1ccccc1)NN1C(=O)/C(=C/c2ccc(C(=O)O)cc2)SC1=S,/,/,-8.4,-13.2,-12.9,2.3%

Of the compounds above, three contain bromine.
Structure,TRPML1 agonist,TRPML1 inh,D2 agonist,Six1-Eya2 inh,D2 potentiator,PINK1 modulator
CCc1nc2ccc(C(=O)NCCN3CCNC3=O)cn2c1N(CC)Cc1cccc(Br)c1,-0.7,/,-4.8,2.7,-2.5,0.3%
O=C(Nc1ccc2c(c1)OCO2)c1cc2ncc(Br)cn2n1,-0.8,-10.3,1.3,-11.7,17.1,0.1%
O=C(CN1CC(c2ccccc2)CC1=O)N/N=C/c1cc(Br)ccc1O (stereo not given),-0.6,8.6,-0.9,-84.3*,-11.9,0.6%

Following part.
Structure,TRPML1 agonist,TRPML1 inh,D2 agonist,Six1-Eya2 inh,D2 potentiator,PINK1 modulator
CC(C)(C)NC(=O)C(c1ccc(F)cc1)N(CCc1ccccc1)C(=O)c1ccn[nH]1 (stereo not given),-0.7,14.6,1.0,2.8,-17.8,0.2%
O=S(=O)(NC1CC2CCC1C2)c1ccc(Br)s1 (stereo not given),-0.6,-13.8,-1.7,-0.8,-13.7,1.4%
O=C(CSc1nnc(CNC(=O)c2c(F)cccc2F)o1)NCc1ccccc1Cl,0.6,-12.5,-0.2,11.4,-9.7,3.8%
CCN(Cc1ccncc1)C(=O)c1ccc(C)c(S(=O)(=O)N2CCCCC2)c1,-0.3,-2.4,0.7,0.2,-22.8,1.0%
Cc1ccc(Nc2nc3nonc3[nH]c2=O)cc1,-0.6,-4.8,-3.3,-0.2,-7.1,-1.7%

Source: PubChem (National Center for Advancing Translational Sciences (NCATS))
